# Screening data (PubChem BioAssay)
# Rango release inh: prevents RanGTP from dissociating the Rango-importin beta complex | Biochemical FRET Rango-importin beta, RanGTP-induced dissociation | Potency, µM (titrated, usually from 46.1 µM), inactives show at the highest dose activity change, negative = inhibition | 340,000 compounds, 0.071% hits | AID 540253; active means falling FRET ratio curve, often poorly fitted, with flat reads before Ran was added; inconclusive means other falling curves, or compound fluorescence or quenching; inactive means flat or rising ratio curve;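 further: potency means the concentration at half of the fitted maximal effect; % of control where 0% means no effect; nearly all actives have a fitted effect of over 45% in size; -100% = wells without RanGTP and RCC1; the record marks most hits as doubtful in a second field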
#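 Two FRET readings bracket the reaction: one 5 min after compound meets Rango–importin beta, another 45 min after RanGTP-RCC1 (0.6 uM Ran, 0.2 uM RCC1, 2 mM GTP) is added. Only the second defines inhibition.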
# Rango-impB inh: Rango-importin beta binding inhibition. AID 540263. 340,000 compounds, 0.031% hits. Q14974. Rango CFP/YFP FRET sensor + importin beta, 45 min. Potency, µM (top dose mostly 92.2 µM), for inactives: at the top dose inhibition of complex formation; active = rising FRET ratio curve, often small or poorly fitted; inconclusive = mostly compound fluorescence or quenching in the first reads; inactive = flat curves in all reads;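 further: potency means the concentration at half of the fitted maximal effect; 0% = DMSO wells and 100% = buffer wells lacking importin beta; nearly all actives have a fitted effect of over 15% in size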
# Target sequence (Q14974 whole entry, looked up): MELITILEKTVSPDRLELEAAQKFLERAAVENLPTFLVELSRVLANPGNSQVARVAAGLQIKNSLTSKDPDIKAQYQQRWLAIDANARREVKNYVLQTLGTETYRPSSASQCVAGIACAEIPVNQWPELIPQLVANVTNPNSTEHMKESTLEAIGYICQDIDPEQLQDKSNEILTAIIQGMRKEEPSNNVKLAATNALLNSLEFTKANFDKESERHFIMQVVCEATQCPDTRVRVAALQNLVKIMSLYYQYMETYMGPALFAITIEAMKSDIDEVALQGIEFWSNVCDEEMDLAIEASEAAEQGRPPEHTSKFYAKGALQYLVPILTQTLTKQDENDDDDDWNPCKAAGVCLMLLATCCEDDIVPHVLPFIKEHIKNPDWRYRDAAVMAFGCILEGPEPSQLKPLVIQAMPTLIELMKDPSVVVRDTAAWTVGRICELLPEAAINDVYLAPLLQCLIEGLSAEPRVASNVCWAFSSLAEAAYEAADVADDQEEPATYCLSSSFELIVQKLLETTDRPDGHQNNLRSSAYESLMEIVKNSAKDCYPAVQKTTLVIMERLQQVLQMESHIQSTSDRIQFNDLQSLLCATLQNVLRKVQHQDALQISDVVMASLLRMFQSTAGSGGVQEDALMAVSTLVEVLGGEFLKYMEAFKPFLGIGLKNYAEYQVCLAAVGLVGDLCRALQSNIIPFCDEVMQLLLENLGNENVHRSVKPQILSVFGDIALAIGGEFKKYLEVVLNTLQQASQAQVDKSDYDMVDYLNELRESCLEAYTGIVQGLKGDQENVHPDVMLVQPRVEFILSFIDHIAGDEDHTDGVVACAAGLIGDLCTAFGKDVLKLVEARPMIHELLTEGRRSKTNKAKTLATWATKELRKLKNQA
#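 Inhibition scored from the CFP 486 nm/YFP 530 nm FRET ratio 45 min after adding 0.125 microM importin beta to 50 nM Rango biosensor preincubated 5 min with compound (room temperature, PBS with DTT, Tween-20, BSA). No-importin wells as positive control.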
# miR-21 reporter: miR-21 reporter, rising signal; HeLa miR-21 FLuc reporter, luciferase, 48 h; Potency, µM (top dose mostly 38.3 µM), for the others: at the highest dose reporter change, positive = more light; 340,000 tested, under 10 active; active = well fitted rising curve with a large enough effect; inconclusive = small, poorly fitted or top-dose-only effect; inactive = no such curve, though single readings can be large or run the other way;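 further: % of control where 0% means no effect; miR-21 action dims this reporter so a rising signal means less miR-21 action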
#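 Luminescence from a firefly luciferase reporter carrying a miR-21 binding site downstream, stably expressed under a CMV promoter in HeLa cells that make miR-21 endogenously, reports miRNA modulation after 48 h compound exposure up to approximately 40uM final.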
# GLA inh pH 4.5: inhibitors of human alpha-galactosidase A at pH 4.5; P06280; purified enzyme, 4-MU-alpha-Gal fluorescence, pH 4.5; activity change, negative = inhibition, % at 105 µM; 230,000 tested, under 10 active; inconclusive = small, poorly fitted or top-dose-only inhibition, or a rising curve; inactive = flat fitted curve, though single readings scatter; no compound was filed as active;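 further: 0% = full activity with enzyme and -100% = basal without enzyme; dose as in the result columns while the protocol names 77 µM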
# Numbers without * were called inactive; ? = inconclusive; nt = not tested or not shown; & = joins results of further samples. Some of the compounds tested (hit frequency here may not be typical).
molecule,Rango release inh,Rango-impB inh,miR-21 reporter,GLA inh pH 4.5
O=C(COC(=O)c1cc([N+](=O)[O-])ccc1N1CCOCC1)c1ccccc1Cl,9%,-1.5%,-3%,nt
O=C(O)C(c1ccccc1)N1C(=O)/C(=C\c2ccc(-c3ccc(Br)cc3)o2)SC1=S (stereo not given),?,?,-1%,nt
Cc1cc(O)c(-c2ccno2)cc1Cl,2%,-4.7%,-2%,-3
O=C(Nc1ccc(S(=O)(=O)Nc2nccs2)cc1)C1CC(=O)N(c2ccc(Cl)cc2)C1 (stereo not given),0%,-1.4%,-2%,nt
COc1ccc2o/c(=N\O)c(C(=O)Nc3ccccc3OC)cc2c1,-5%,5.1%,-26%,13
CCN(CC)C(=O)N1CCn2c(nc3ccccc32)C1,-1%,-0.2%,-10%,5
COc1ccc(NC(=O)c2cncn2-c2ccccc2)cc1,12%,-2.1%,-9%,nt
CCCNC(=O)NCCc1ccncc1,1%,-1.2%,-1%,6
Cc1cc(-c2nnc(-c3cccc(Cl)c3)o2)no1,12%,0.9%,-56%,-4
C=CCNC(=O)CSc1nnc(-c2ccccn2)n1Cc1ccccc1,15%,0.3%,0%,-1
O=C1c2oc3ccccc3c(=O)c2C(c2cccc(F)c2)N1CCCO (stereo not given),-15%,0.1%,4%,3
CCc1cccc2c(C(=O)CSc3nnc(-c4ccoc4C)n3C)c[nH]c12,-7%,?,-4%,1
CCN(CC(=O)Nc1cccc(OC)c1)CC(=O)Nc1cccc2ccccc12,19%,5.2%,nt,nt
CCN(CC)S(=O)(=O)c1cccc(C(=O)N/N=C/c2ccc([N+](=O)[O-])o2)c1,-12%,-0.8%,25%,2
CC(C)[C@H](NC(=O)OCc1ccccc1)C(=O)OCC(=O)NCCc1ccccc1,-19%,?,-3%,nt
CC(C)c1ccc(CN2C(=O)NC3(CCCCCC3)C2=O)cc1,-9%,-1.3%,4%,nt
CNC(=S)NC1CC2CCCC(C1)N2Cc1ccccc1OC (stereo not given),1%,2.3%,-2%,nt
COc1ccc2c(c1)C1OCCC1C(c1ccco1)N2 (stereo not given),1%,-0.3%,nt,nt
O=C(CSc1nccn1-c1ccccc1)NO,1%,0.6%,-11%,0
Cc1cccc(NC(=O)CCN2C(=O)C3C4C=CC(C4)C3C2=O)c1 (stereo not given),0%,4.1%,-6%,4
COc1cccc(C2CC(c3cccs3)=NN2S(C)(=O)=O)c1 (stereo not given),2%,-0.7%,-26%,-7
O=C(NC(=S)NCCO)c1sc2ccccc2c1Cl,?,0.7%,-52%,4
COCCNC(=O)C(c1ccc(C)cc1)N(C(=O)CCC(=O)Nc1ccccn1)C1CCCC1 (stereo not given),nt,nt,-11%,7
COc1ccccc1OC(C)C(=O)N1CCN(Cc2ccc3c(c2)OCO3)CC1 (stereo not given),-13%,0.9%,-2%,nt
CCC(Sc1ncccc1C(=O)OC(C)C)C(=O)N1CCOCC1 (stereo not given),1%,-0.9%,-4%,3
CN(C)c1ccnc2sc3c(SCc4ccc(Cl)cc4)ncnc3c12,2%,-0.8%,-12%,5
COc1ccc(NC(=O)COC(=O)CO/N=C(\C)c2ccc3c(c2)OCO3)cc1S(N)(=O)=O,-5%,-0.8%,nt,nt
NC1=NC(=O)/C(=C/c2cccc(F)c2)S1,1%,0.7%,2%,nt
O=C(CCl)Nc1cccc(Oc2ccccc2)c1,-4%,-3.7%,?,-1
Cc1ccc(CNC(=O)CSc2nc(C)cs2)cc1,-3%,-0.8%,-16%,5
COc1ccc(C(=O)NNC(=O)c2snnc2C)cc1,7%,-3.9%,-14%,2
COc1ccc(N2CCN(C(=O)COC(=O)c3oc4ccccc4c3C)CC2)cc1,-9%,-6.0%,nt,nt
CC(C)N1CCN(c2ccc(S(=O)(=O)N3CCOCC3)cn2)CC1,15%,1.1%,1%,nt
COc1ccc(COC(=O)C2=C(C)NC(=O)NC2c2ccccc2F)cc1 (stereo not given),-14%,0.3%,-1%,nt
CCOC(=O)C1CCN(c2cc(=O)n(Cc3ccc(F)cc3)c(=O)[nH]2)CC1,0%,4.5%,-3%,4
Cc1onc(-c2ccc(Cl)cc2Cl)c1-c1csc(N/N=C/c2ccccc2Cl)n1,?,?,1%,-4
O=C(Nc1nnc(-c2cccs2)o1)C1CC1,-20%,-5.2%,-2%,-2
O=C(Nc1nnc(SCc2ccc(F)cc2)s1)C1CC(=O)N(c2ccc3c(c2)OCCO3)C1 (stereo not given),6%,6.4%,-7%,1
Cc1ccc(N2C(=O)CC(Sc3ncn[nH]3)C2=O)cc1C (stereo not given),-1%,-1.5%,-2%,0
Cc1cc(C)c(S(=O)(=O)n2cnc3ccccc32)c(C)c1,11%,-1.9%,0%,6
COC(=O)c1c(-c2ccc(SC)cc2)sc2ccccc12,16%,2.0%,nt,nt
CNC(=O)c1cc2cc(Cc3ccccc3Cl)ccc2oc1=O,nt,3.3%,-2%,1
Cc1c(Cl)cccc1NC(=O)Cc1ccc([N+](=O)[O-])cc1,-3%,-2.1%,-1%,5
Cc1cccc(NS(=O)(=O)c2nnc(NC(=O)CC(C)C)s2)c1,-8%,-0.8%,-9%,nt
O=C(CCS(=O)(=O)c1cccc2nsnc12)NC1CCCCCC1,-13%,2.9%,-3%,5
Cc1scc(C(=O)N/N=C/c2ccc(OC(C)C)cc2)c1C,13%,0.7%,-31%,1
CC(C)CNc1cc(N2CCCC2)ccc1[N+](=O)[O-],15%,-0.5%,-7%,-14
c1ccc2c(c1)N1CCCN=C1N2CCN1CCCCC1,-5%,0.4%,1%,0
Cc1cccc(-c2nc(=S)c3c(o2)CCCC3)c1,6%,2.7%,-52%,1
COc1ccc(NC(=S)N2CCC(NC(=O)c3ccc(OC)cc3)CC2)cc1,-8%,4.0%,4%,nt
CCOc1ccc2nc(NC(=O)CSc3nc(-c4ccccc4)c(C#N)c(=O)[nH]3)sc2c1,-17%,-3.3%,-21%,-4
CCCN(Cc1nnc(-c2ccccc2Cl)o1)C(=O)c1cc(S(=O)(=O)N2CCOCC2)ccc1F,19%,2.0%,nt,nt
CC1(/[N+]([O-])=C/c2ccc(Cl)cc2Cl)CCCCC1=O (stereo not given),22%,-2.2%,-5%,-10
NC(=O)c1ccc(NC(=O)CSC2=Nc3ccccc3C3CC=NN23)cc1 (stereo not given),-15%,?,-35%,5
COc1ccc(CCN2C(=O)CC(NNc3ccc([N+](=O)[O-])cc3)C2=O)cc1OC (stereo not given),-21%,?,-2%,-5
OC1CCCN(CC(O)c2ccccc2)C1 (stereo not given),-1%,0.7%,-3%,2
CC(=O)Nc1ccc(S(=O)(=O)N2CCC3(CC2)OCCO3)cc1,-8%,0.1%,-36%,nt
CCN(CC(=O)Nc1ccc(NC(C)=O)cc1)C(=O)c1c(-c2c(F)cccc2Cl)noc1C,0%,-1.9%,-11%,nt
O=C(NCC(=O)N(c1cnc2ccccc2c1)C(C(=O)NC1CCCC1)c1ccncc1)c1ccco1 (stereo not given),10%,-0.9%,-30%,-5
CCOC(=O)c1sc2nc(C)nc(NC3CCC(O)CC3)c2c1C (stereo not given),-10%,-0.2%,-1%,nt

# (cont.)
molecule,Rango release inh,Rango-impB inh,miR-21 reporter,GLA inh pH 4.5
O=S(=O)(N/N=C1/CC(c2ccccc2)Oc2ccccc21)c1ccc(Br)cc1 (stereo not given),7%,5.8%,-9%,-16
Nc1nc2ccc(Cl)cc2[nH]1,23%,0.0%,nt,nt
Cc1nc(C(=O)O)nn1-c1ccc([N+](=O)[O-])cc1,5%,-1.5%,-1%,7
CCOC(=O)CCSc1cc(C)c2ccccc2n1,-1%,-0.8%,1%,5
COc1cn(-c2ccccc2)nc1C(=O)NCc1ccccc1,2%,-3.2%,-19%,nt
CCN(CC(=O)Nc1ccc(OC)cc1)C(=O)c1cc(S(=O)(=O)N2CCOCC2)ccc1N1CCCC1,0%,1.3%,nt,nt
CCSC1=C(C#N)C2(CCCCC2)C(C#N)C(=O)N1 (stereo not given),16%,3.1%,-6%,-11
CC(C)(C)c1cc(CCC(=O)N2CCCC2)cc(C(C)(C)C)c1O,1%,-3.8%,2%,nt
N#C/C(=C\c1c(N2CCC(C(N)=O)CC2)nc2ccccn2c1=O)S(=O)(=O)c1ccc(Cl)cc1,?,?,-2%,-1
Cc1nc2ccccn2c1C(=O)N/N=C/c1ccc([N+](=O)[O-])o1,6%,-1.8%,?,-5
Cc1ccccc1CC1(CO)CCCN(Cc2c(C)nn(C)c2Cl)C1 (stereo not given),18%,-4.0%,2%,-14
Cc1cc(C)n(-c2cc(N3CCN(S(=O)(=O)c4ccc(Br)cc4)CC3)ccc2[N+](=O)[O-])n1,-7%,0.5%,10%,-6
CC(C)NS(=O)(=O)c1ccc(OCC(=O)NCc2ccccc2)cc1,-8%,2.6%,-3%,-1
CCCn1cnc2sc(C(N)=O)c(C)c2c1=O,18%,0.8%,-2%,1
CCc1c(C)c(C#N)c2nc3ccccc3n2c1-n1nc(C)cc1C,-2%,?,-5%,-5
CC(=O)C1=C(O)C(=O)N(C)C1c1ccccc1F (stereo not given),2%,-1.7%,-8%,-2
COc1ccc(C2C(C(=O)N3CCCC3)c3cc(OC)c(OC)cc3C(=O)N2C)cc1 (stereo not given),6%,-0.7%,-4%,3
Fc1ccc(-c2cn(-c3ccccc3)c3[n+]2CCS3)cc1,-3%,0.4%,14%,-6
Cc1ccc(NC(=O)C2CCN(C(=O)N3CCOc4ccccc43)CC2)cc1,10%,1.2%,12%,nt
CCOC(=O)C1CCN(S(=O)(=O)c2c(C(=O)N3CCCCC3)c(C)n(C)c2C)CC1,6%,1.1%,-4%,nt
COc1ccc(CCNC(=O)c2nonc2N)cc1OC,17%,-5.6%,-9%,-2
CN(C)S(=O)(=O)Oc1ccsc1C(=O)Nc1ccc(Cl)c(Cl)c1,3%,-0.8%,5%,-3
Cc1ccc(NC(=O)c2ncn(CC(=O)NCc3ccccc3)n2)cc1C,14%,0.4%,nt,nt
Cc1cccc(-c2cccc(NC(=O)C3CCCN(Cc4cccnc4)C3)c2)c1 (stereo not given),7%,0.0%,21%,nt
N#Cc1cccc(NC(=O)CSc2nnc(-c3n[nH]c4ccccc34)o2)c1,-20%,1.3%,-34%,-17
CCN(CC(=O)Nc1ccc(NC(C)=O)cc1)C(=O)c1c(C)nn(-c2ccc(F)cc2)c1Cl,1%,1.0%,nt,nt
CN1C[C@@H]2C(c3ccc(C(F)(F)F)cc3)C3(c4ccc(C#N)cc4)CC2(C3)[C@H]1c1ccccc1 (stereo not given in full),0%,0.6%,-4%,-6&0
O=C(Nc1ccccn1)C1CCN(S(=O)(=O)c2ccc3ccccc3c2)CC1,0%,-1.4%,nt,nt
O=C(c1cc(COc2ccc(F)cc2F)on1)N1CC2C[C@@H]3CC1C[C@H](C2)C3,4%,-1.1%,-28%,nt
CC(=O)Nc1ccc(S(=O)(=O)NCCSc2ccccn2)cc1,-15%,-0.1%,-3%,5
COC(=O)c1ccc(/C=C/C(=O)c2ccc(OC)c(OC)c2)cc1,0%,2.7%,15%,1
Cc1cccc2nc(CSc3nc4[nH]ncc4c(=O)n3-c3cccc(Cl)c3)cc(=O)n12,-4%,-2.9%,-1%,14
CCc1nnc(NC(=O)C2CCC(CNc3c(N4CCC(C)CC4)c(=O)c3=O)CC2)s1 (stereo not given),19%,-3.4%,-2%,2

# Compound profiles, from the list above:
# Results for CCc1cccc2c(C(=O)CSc3nnc(-c4ccoc4C)n3C)c[nH]c12 : Rango release inh: -7%; Rango-impB inh: ?; miR-21 reporter: -4%; GLA inh pH 4.5: 1
# Results for N#Cc1cccc(NC(=O)CSc2nnc(-c3n[nH]c4ccccc34)o2)c1 : Rango release inh: -20%; Rango-impB inh: 1.3%; miR-21 reporter: -34%; GLA inh pH 4.5: -17
